# GALR2 ag = activates the human galanin receptor 2. actives 0.48% (n = 140,000). activation, %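 (tested at 5 µM)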. AID 803. GALR2-expressing cells, agonist activation read-out;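 active = above mean plus 3 SD of all compounds, about 5% in these data, not always enough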;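 also: 0% = vehicle buffer wells and 100% = reference agonist at full effect; tested in CHO reporter cells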
# Target sequence (O43603 whole entry, looked up): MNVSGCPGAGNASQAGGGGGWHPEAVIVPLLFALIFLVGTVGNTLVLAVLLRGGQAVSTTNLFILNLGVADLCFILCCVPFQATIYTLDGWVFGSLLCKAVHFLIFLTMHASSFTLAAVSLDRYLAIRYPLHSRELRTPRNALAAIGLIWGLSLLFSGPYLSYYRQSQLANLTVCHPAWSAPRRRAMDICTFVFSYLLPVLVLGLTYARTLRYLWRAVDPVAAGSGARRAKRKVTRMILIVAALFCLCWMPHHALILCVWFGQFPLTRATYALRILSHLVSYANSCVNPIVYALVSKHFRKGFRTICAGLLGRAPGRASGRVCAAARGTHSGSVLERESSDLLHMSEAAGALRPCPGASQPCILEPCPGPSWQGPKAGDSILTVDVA
# HSV replic up = HSV replication enhancement; HSV replication augmentation in cells, fold increase; actives 0.005% (n = 220,000); maximum fold increase;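 active = peak rise of 1.5-fold or more in the series; tested in PC3 cells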;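 also: first round at 10 µM; read as green reporter fluorescence; hits show the peak of a series up to 25 µM; 1 = signal of infected wells without compound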
# PKD1 kinase inh = inhibitors of human PKD1 kinase. inhibition, %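 (about 10 µM by stock and volumes)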. PKD1 kinase fluorescence polarization assay. Q15139. actives 0.056% (n = 200,000);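 active = inhibition of 50% or more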;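 also: controls were vehicle for no effect and a reference inhibitor for full effect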
# INS promoter inh = TRM-6 insulin promoter activity inhibition. TRM-6 cells (human fetal islet line), insulin promoter-eGFP reporter, imaging; reporter expression induced with tamoxifen. inhibition, % at 2 µM. actives 0.9% (n = 130,000). AID 1273;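 active = inhibition above the mean plus 3 SD, with well images judged a real hit on visual review, cut at about 60% in these data, passing the limit was not always enough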
# RGS16-Gao = regulators of human RGS16-Galphao interaction | actives 0.38% (n = 220,000) | AID 1441 | bead-based flow cytometry RGS16-Galphao binding, fluorescence; actives lie on both sides | binding response (% of control), % at 10 µM;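 active = below 25% or above 175%, edge rows of some plates excepted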;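 also: Galphao activated by GDP with aluminum fluoride before binding; 100% = wells without compound and 0% = beads without RGS; some results beyond the cut were filed as inactive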
# Target sequence (O15492 whole entry, looked up): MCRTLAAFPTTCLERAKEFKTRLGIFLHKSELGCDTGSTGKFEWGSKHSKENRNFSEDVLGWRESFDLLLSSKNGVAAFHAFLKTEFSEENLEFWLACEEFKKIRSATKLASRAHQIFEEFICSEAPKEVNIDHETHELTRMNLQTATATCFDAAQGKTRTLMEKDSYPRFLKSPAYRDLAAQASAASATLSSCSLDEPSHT
# Target sequence (P09471 whole entry, looked up): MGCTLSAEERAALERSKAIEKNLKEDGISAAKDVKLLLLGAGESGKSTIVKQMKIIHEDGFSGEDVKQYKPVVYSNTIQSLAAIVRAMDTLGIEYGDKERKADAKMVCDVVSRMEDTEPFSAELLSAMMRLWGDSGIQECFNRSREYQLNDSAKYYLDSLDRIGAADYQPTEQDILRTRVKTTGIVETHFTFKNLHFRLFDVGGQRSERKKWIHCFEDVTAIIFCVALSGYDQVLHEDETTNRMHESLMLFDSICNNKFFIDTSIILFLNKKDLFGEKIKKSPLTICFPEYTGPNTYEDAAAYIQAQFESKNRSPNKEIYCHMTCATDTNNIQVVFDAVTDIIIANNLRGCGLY
# INS promoter inh cell count = also measured in INS promoter inh; calls as there; normalized cell count, %; measured here: cell count, toxicity; reference of the scale not given here;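 cells exposed to compound for 48 h; stained nuclei by imaging scaled within each plate; lower means fewer cells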
# HSV replic up primary fold = second read-out of HSV replic up, no call of its own (marks repeat the call); fold increase; compound at 10 µM; measured here: primary screen fold increase 10 uM; tested in PC3 cells;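 GFP signal in the first replicate; 1 = infected wells without compound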
# * marks the source's active call; other numbers are inactive results; i = inactive; x = not tested or not shown.
SMILES,GALR2 ag,HSV replic up,HSV replic up primary fold,PKD1 kinase inh,INS promoter inh,INS promoter inh cell count,RGS16-Gao
CC(=O)N1CCN=C1SCc1ccccc1F,-2.0,i,1.03,-8.0,x,x,104.1
Cc1cc(C)c(OCC(=O)Nc2cc(C(=O)O)cc(C(=O)O)c2)cc1C,x,i,0.98,-0.4,42.9,57.1,110.1
CC(=O)/C=C/c1ccc2ccccc2n1,-2.4,i,0.77,-11.4,63.9,127.9,101.2
Cc1cccc(CC2CC(=O)N(c3nc4ccccc4s3)C2=O)c1 (configuration not stated),x,i,0.88,-2.3,65.0,97.6,106.3
CCOC(=O)c1c(N)c(C#N)nn1-c1ccccc1C(=O)OC,-0.9,i,1.29,1.4,-140.0,95.8,95.6
O=C(CCC(=O)N(c1cccc(F)c1)C(C(=O)NC1CCCC1)c1ccncc1)Nc1cccnc1 (configuration not stated),-2.7,i,1.01,-6.9,41.4,73.9,97.4
Cn1c(=O)c2c(nc(NCC3CCCO3)n2C)n(C)c1=O (configuration not stated),-1.8,i,0.91,-6.9,35.7,164.6,101.4
CCOC(=O)C1=NOC2C(=O)N(c3ccc(Cl)cc3Cl)C(=O)C12 (configuration not stated),x,i,0.93,0.4,x,x,109.0
CCN(C)Cc1c(C(=O)N2CCc3ccccc3C2)nc2ccc(Cl)cn12,x,i,0.97,0.5,x,x,104.7
Cn1cc(Br)c(C(=O)Nc2c(F)c(F)c(F)c(F)c2F)n1,-0.4,i,1.05,-10.8,0.0,84.8,97.3
Cc1cc(C)c(OCC(=O)N/N=C/c2ccco2)c(C)c1,-1.8,i,0.93,-5.3,21.4,60.5,107.7
O=C(NCCCCCCOC1=NS(=O)(=O)c2ccccc21)C(=O)Nc1ccccc1,x,i,0.93,-1.8,-9.1,65.9,106.2
CC(=O)Nc1ccc(C(=O)OC2CCCCC2=O)cc1 (configuration not stated),-1.7,i,1.07,-6.6,10.1,140.4,102.2
Cc1nn(C)c(C)c1NC(=O)c1ccccc1NC(=O)Nc1ccccc1,x,i,1.1,x,x,x,91.4
Cc1cc(C)c2cc3c(N)c(C(=O)N4CCOCC4)sc3nc2c1,x,i,1.11,2.7,x,x,100.8
C/C(=N\N=C1\NC(=O)C(Cc2ccccc2)S1)c1ccccc1 (configuration not stated),x,i,0.86,6.5,22.2,132.7,100.1
COC(=O)c1cc2n(n1)CCN(Cc1ccc(OC)cc1)C2=O,-1.9,i,0.98,-6.4,x,x,96.1
C=CCOC(=O)C1=C(C)NC(C)=C(C(=O)OCC=C)C1c1ccco1,x,i,0.95,x,x,x,99.9
CCOC(=O)c1sc(NC(=O)c2ccccc2OC)nc1C,-3.8,i,0.92,7.9,x,x,104.8
N=C1C(c2nc3ccccc3c(=O)[nH]2)=C(O)CN1CCc1ccccc1,0.1,i,0.96,-1.3,x,x,107.8
COc1ccc(C)cc1NC(=O)CSc1nnc(COc2ccccc2)n1Cc1ccco1,-2.0,x,x,-6.7,x,x,90.7
C=CCn1c(SCC(=O)c2cccs2)nc2sc(C)c(C)c2c1=O,-0.6,i,0.99,0.6,-106.7,139.7,101.0
c1cc2c(c(NCc3ccncc3)c1)CCCC2,-1.6,x,x,3.7,x,x,101.8
COC(=O)C1=C(N)Oc2c(oc(CO)cc2=O)C1c1ccccc1F (configuration not stated),-2.1,i,1.05,-9.4,0.0,107.6,109.3
CSc1ccccc1NC(=O)Cn1nnc(-c2ccc(S(C)(=O)=O)cc2)n1,x,i,1.06,-1.0,x,x,97.8
COc1ccc(-n2c(SC3CCOC3=O)nc3ccccc3c2=O)cc1OC (configuration not stated),-1.1,i,0.89,3.2,x,x,102.9
O=C(Nc1ccccc1C(F)(F)F)NC1CCCCC1,-0.6,i,0.92,-9.4,-11.1,125.4,102.1
Cc1ccc(C(=O)NNC(=O)C2CCN(Cc3ccccc3)CC2)cc1,-2.9,i,0.91,-9.7,-40.0,55.5,103.0
Cn1cccc1C(C#N)c1cccc(F)c1C#N (configuration not stated),x,i,0.94,-2.4,46.7,83.2,102.1
Cc1nnc(SCc2ccccn2)n(N)c1=O,x,i,0.92,8.1,31.4,81.5,97.8
O=[N+]([O-])c1cc(Cl)ccc1N1CCCCC1,x,i,0.99,8.2,x,x,103.2
O=C(CCN1C(=O)C2(OCCO2)c2ccccc21)c1ccccc1,-1.0,i,0.9,-2.8,29.4,68.1,104.3
Cc1cc(=O)n(C)c(=O)n1CCCCCCN1CCCC1,-1.4,i,1.05,-3.5,-76.9,130.6,140.6
Cc1ccc(S(=O)(=O)c2c(C)cc(-c3ccccc3)[nH]c2=O)cc1,-3.5,i,1,9.4,56.2,120.4,97.0
Cc1ccccc1-c1nnc(SCC(=O)Nc2c(C)n(C)n(-c3ccccc3)c2=O)o1,-2.5,i,0.9,-7.9,x,x,x
O=C1c2ccccc2C(=O)N1CSc1nnc2c3ccccc3n(CCc3ccccc3)c2n1,-1.1,i,0.82,-9.9,-100.0,96.3,93.1
S=c1nc[nH]c2c1ncn2C1CCCC1,x,i,0.9,x,x,x,127.9
CCC(CC)C(=O)OCC(=O)NC12CC3CC(CC(C3)C1)C2,-0.7,i,0.86,1.4,-37.0,81.4,105.5
CCCCNC(=O)CC1N=C2c3ccccc3N=C(SCC(=O)Nc3cccc(OC)c3)N2C1=O (configuration not stated),-0.6,i,0.85,-2.3,27.8,91.3,101.5
CCC(Sc1nc2n[nH]c(C)c2c(=N)n1-c1cccc(Cl)c1C)C(=O)N(CC)CC (configuration not stated),-0.6,i,0.79,-8.0,x,x,97.5
CC1=CC(C)(C)N2C(=O)C3(C(C#N)=C(N)OC4=C3C(=O)CCC4)c3c(C)c(C)cc1c32 (configuration not stated),-1.0,i,0.82,9.8,x,x,105.7
CC(C)CCn1c(COc2ccccc2)n[nH]c1=S,x,i,0.93,9.0,x,x,102.7
Cc1occc1C(=O)N/N=C/C=C/c1ccccc1[N+](=O)[O-],x,i,0.82,-7.2,-17.6,112.7,92.7
CCOC(=O)C1(Cc2ccccc2C(F)(F)F)CCN(C(=O)c2cc(C)n(C)n2)CC1,x,i,0.76,-4.4,x,x,103.4
Cc1ccc(S(=O)(=O)N2CCOCC2)cc1N/N=C(\C#N)c1nc2ccccc2[nH]1,0.8,i,1.01,0.5,x,x,99.2
COc1ccccc1CNC(=S)NC1CCCCC1,x,i,1.01,0.9,9.1,125.0,109.9
COc1ccc2cc(/C(C)=N/NC(=O)c3cc(-c4cccnc4)nc4ccccc34)ccc2c1,0.0,i,0.97,-2.7,-40.0,123.5,100.1
O=CN1CCN(C(C(=O)NC2CCCC2)c2ccc(Cl)cc2)CC1 (configuration not stated),0.0,i,0.89,-1.9,9.1,85.8,104.1
Cc1sc(NC(=O)CN(C)C2CCCCC2)nc1-c1ccc2c(c1)CCN2S(=O)(=O)c1ccccc1,-2.0,x,x,-2.4,-27.3,79.8,46.4
CC1CCCCN1C(=O)CSc1nc(-c2ccccc2)cn1N (configuration not stated),x,i,0.88,1.0,-8.3,142.7,97.2
COc1ccc(OCC(O)CON2C(=O)c3ccccc3C2=O)cc1 (configuration not stated),-1.9,i,0.86,-1.5,55.6,44.0,105.8
Cc1cccc2c1N(CCOc1ccccc1Cl)C(=O)C2=O,0.8,i,0.99,-10.9,-48.6,82.3,109.2
CS(=O)(=O)N(CC(O)Cn1c2ccccc2c2ccccc21)c1ccccc1 (configuration not stated),0.1,i,0.92,4.1,-74.2,39.4,103.2
CC1=NN(c2ccccc2)C(=O)/C1=C\c1cc(C)n(-c2ccccc2)c1C,-1.2,i,0.88,-3.1,x,x,98.5
Cn1c(CNC(=O)c2ccccc2F)nnc1SCC(=O)N1CCN(c2ccccc2)CC1,x,i,1.03,-6.8,x,x,99.1
COc1cccc(-c2nnc(N(C)C(=O)c3ccno3)s2)c1,-1.3,i,1.01,-55.9,28.6,175.1,91.7
COc1ccc(C(=O)Nc2ccccc2C(=O)NC(Cc2ccc(O)cc2)C(=O)NNC(=O)c2ccncc2)cc1 (configuration not stated),x,i,0.99,-3.4,x,x,97.5
CC(/C=C/c1ccccc1)=N\NC(=O)C1CC1(C)c1ccccc1 (configuration not stated),-2.3,i,0.85,-0.8,-281.2,94.9,32.3
C=CCn1c(-c2csc(-c3ccc(Cl)cc3)n2)n[nH]c1=S,-2.5,i,0.89,-5.0,24.1,98.1,97.3
O=C(NCc1ccco1)C1CCCN(S(=O)(=O)Cc2ccccc2)C1 (configuration not stated),-1.1,i,1.02,3.9,6.2,74.4,96.9
# (listing goes on)
SMILES,GALR2 ag,HSV replic up,HSV replic up primary fold,PKD1 kinase inh,INS promoter inh,INS promoter inh cell count,RGS16-Gao
Cc1cc(C)cc(NC(=O)c2ccc(CSc3nnc(C)s3)cc2)c1,-1.3,i,0.98,-10.2,-24.0,113.6,102.0
S=C(CN1CCCC1=S)NCCc1ccccc1,x,i,1.05,x,x,x,99.5
NS(=O)(=O)c1cnccc1Nc1ccc(Cl)cc1,-2.0,i,0.96,5.8,-30.8,130.8,105.2
O=C(Nc1cccc2ccccc12)c1cnsn1,x,i,1,-9.1,x,x,103.0
NC(=O)N=Nc1c(O)[nH]c2ccc([N+](=O)[O-])cc12,x,i,1.12,x,x,x,101.9
COc1cc(OC)cc(-c2n[nH]c(=S)n2-c2cc(OC)ccc2OC)c1,-2.4,i,0.95,3.5,-23.3,67.4,103.1
COc1ccc(/C=N/NC(=O)c2cccnc2)cc1COc1ccc([N+](=O)[O-])cc1,x,i,0.66,x,x,x,102.6
COc1ccc(C(C)=O)cc1CSc1nnc(Nc2ccccc2)s1,-0.2,i,0.88,-16.3,-43.2,93.3,108.6
O=C(Cc1cccc(C(F)(F)F)c1)NCc1ccc(Cl)cc1Cl,-0.6,i,1.04,-0.1,x,x,26.6
CC(C)(CS(=O)(=O)[O-])NC(=O)CC[N+](C)(C)CCO,0.5,i,1.03,-4.1,12.8,120.5,106.3
Cc1cnc(C(=O)NCCc2ccc(S(=O)(=O)NC(=O)NC3CCCCC3)cc2)cn1,-0.9,i,0.83,10.7,-9.5,100.7,105.5
N#CCCN(CCC#N)C(=O)c1ccc2c(c1)OCO2,-3.0,i,0.86,4.6,-169.8,75.4,97.0
Cn1ncc2c(N3CCN(c4ccccc4F)CC3)ncnc21,-4.7,i,0.97,-5.1,-38.2,3.6,112.4
COc1ccc(OCCSc2nc3ccccc3n2CC(=O)O)cc1,-4.9,i,0.97,-5.5,2.7,163.9,100.4
CCC1CCc2c(sc(N)c2C(N)=O)C1 (configuration not stated),-0.7,i,0.86,-3.1,30.8,92.5,97.2
S=C(Nc1ccccc1)Nc1nc2ccccc2n1CCOc1ccc(Cl)cc1,-1.6,i,0.93,3.5,x,x,144.5
O=C(NNS(=O)(=O)c1ccccc1F)c1cccc(S(=O)(=O)N2CCOCC2)c1,-1.2,i,0.94,-11.9,3.7,108.6,102.5
CC(C)c1ccc(NC(=O)c2cccnc2)cc1,-0.6,i,0.96,-11.6,x,x,102.6
CCOC(=O)c1ccc(NC(=S)N(CCCN(CC)CC)Cc2ccco2)cc1,-0.1,i,0.94,0.8,-62.5,75.1,80.4
CCOc1ccc(-c2cc(N3C(=O)Nc4ccccc4N3O)n[nH]2)cc1,x,i,0.88,7.7,-25.0,68.0,107.2
COC(CNC(=O)c1ccc(Cn2c(=S)[nH]c3cc4c(cc3c2=O)OCO4)cc1)OC,-1.0,i,0.87,-4.5,13.3,141.8,101.3

# Hits appear at their usual frequency; 1.3% or so of the library scored in one or more.
